# Bioassay records (PubChem)
# Mtb hypoxia rep: PubChem AID 1159583 | actives 0.1% (n = 300,000) | fluorescence inhibition, % (test concentration not listed) | M. tuberculosis hypoxia-regulated fluorescent reporter, fluorescence;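 active = 35 to 45% if threefold the growth effect, above 45% if 1.5-fold the growth effect; inactive = the rest, general growth blockers included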;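 also: wells of about 50 µL received 100 nL stock; 0% = vehicle wells and 100% = reference inhibitor wells; whole bacteria with a GFP reporter of the hypoxia response; strong numbers were not always called active; many hits fall short of the cut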
# BJeLR viability: MLPCN primary cell-based screen for lethality selective to Ras in HRASV12 cells; AID 1554, 2009; inhibition, % (concentration not given with the values); actives 0.17% (n = 300,000); BJeLR (HRASV12) viability, CellTiter-Glo ATP luminescence, 48 h; reference of the scale not given here;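 active = replicate mean above 50%; inconclusive = above 50% but judged a plate artefact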;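 also: 50 nL library stock added to about 25 µL; numbers are from one replicate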
# RN4220 kill: growth inhibition of S. aureus RN4220, primary screen, OD600; 16 h; inhibition, % (no concentration beside the values); actives 0.33% (n = 330,000); AID 1259311, 2017;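 active = z-score of -3 or lower and OD600 up to 0.18 on both plates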;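 also: plate controls were untreated cells for no effect and reference antibiotic for full effect; stock transfer was 100 nL into about 80 µL; one replicate is shown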
# PrP 5UTR inh: inhibition of PrP 5' UTR reporter expression; actives 0.35% (n = 340,000); cell-based PrP 5' UTR mRNA reporter, plate reader; inhibition, % (concentration not given with the values);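 active = every replicate at 50% or more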;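 also: 0 = median of the neutral control wells; tested in H4 reporter cells; numbers are from one replicate; inactives centre near -14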
# Sa ugtP lethal: growth inhibition of ugtP-null S. aureus, primary screen, RN4220 ugtP deletion, OD600; growth inhibition, % (no concentration beside the values); 16 h; some inactives read as strong as hits; AID 1259309, 2017; actives 0.54% (n = 330,000);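 active = z-score under -3 and OD600 up to 0.15 on both plates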;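 also: plate controls were untreated wells for no effect and antibiotic for full effect; wells of about 80 µL received 100 nL stock; the first replicate is given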
# Bead autofluor: flagged as autofluorescent in microsphere protease counterscreen | fluorescence intensity (test concentration not listed) | compound autofluorescence counterscreen, microsphere flow cytometry; active compounds read high | AID 624483 | actives 3.1% (n = 360,000);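 active = at least 3 SD above the mean of all compounds, about 16000 in these data; inconclusive = too few beads counted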;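 also: 100 nL of 1 mM stock went into each well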
# Mtb hypoxia rep growth: further read-out of Mtb hypoxia rep, marked with its call; growth inhibition, %; measured here: M. tuberculosis growth (absorbance);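 0% = vehicle and 100% = reference antibiotic; read after six days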
# * = called active by the depositor; u = inconclusive; x = not tested or not shown. Compounds as they come; any-hit rate near 4%.
SMILES,Mtb hypoxia rep,Mtb hypoxia rep growth,BJeLR viability,RN4220 kill,PrP 5UTR inh,Sa ugtP lethal,Bead autofluor
COc1ccc(-c2csc(-n3cccn3)n2)cc1,18.3,11.8,-8.3,15.2,-42.4,8.3,3739
CC(=NNC(=O)c1ccncc1)c1ccc(NC(=O)c2ccc(Cl)cc2)cc1,13.7,2.4,x,4.9,x,1.6,x
O=C(NCCN1CCCCC1)c1ccc(/C=N/O)nc1,x,x,-18.4,x,-9.1,x,3961
CCCc1nccn1S(=O)(=O)c1cc(OC)ccc1OC,4.9,-1.4,-0.1,2.6,-2.9,1.6,14261
Cc1ccc(S(=O)(=O)N2CCC(C(=O)NNC(=O)c3ccccc3)CC2)cc1,7.1,-0.2,-15.7,4.3,-29.1,-4.8,4411
CCc1ccc(OCC(=O)Nc2nnc(C3CCCC3)s2)cc1,3.4,-2.2,6.7,-3.8,-4.6,-0.5,6114
Cn1c(CNC(=O)c2ccco2)nnc1SCC(=O)Nc1ccc(Cl)cc1,-9.6,9.8,-4.9,3.5,0.3,0.8,6697
O=C(Nc1cc2c3c(c1)CC(=O)N3CCC2)c1ccc(F)cc1,-1.2,2.4,5.1,-1.3,-20.2,-2.5,x
CCCCC(c1nnnn1Cc1ccco1)N1CCN(C(=O)c2ccco2)CC1 (stereo unspecified),2.1,10.5,-6.2,-1.6,-18.9,-1.9,4483
COc1ccc(Cc2nnc(NC(=O)c3c(-c4ccccc4)noc3C)s2)cc1,-6.2,4.3,5.8,10.1,-29.7,-0.4,2922
Cc1ccc(/C=N/NC(=O)NC2CCCCC2)o1,x,x,5.8,x,-35.3,x,3448
Cc1ccnc(SCCn2c(N3CC(C)CC(C)C3)nc3c2c(=O)n(C)c(=O)n3C)n1 (stereo unspecified),1.8,4.9,-1.6,7.0,-68.8,2.6,5292
CCS(=O)(=O)c1ccc2oc(Nc3ccc(OC)c(OC)c3)nc2c1,3.3,6.1,4.6,1.0,-10.0,-1.3,5568
COc1ccc(NC(=O)CSc2nnc(C3CC3)n2C)cc1,10.1,-4.4,4.6,-1.1,-12.4,-3.2,4509
COc1ccc(CN(C)C(=O)C2CCN(S(=O)(=O)c3cccs3)CC2)cc1F,11.0,5.3,x,6.0,-11.3,1.8,3468
N#C/C(=C\c1ccncc1)c1ccc(NC(N)=O)cc1,-2.5,-5.4,11.2,-3.7,-3.1,-8.9,3129
CNc1ccc(S(=O)(=O)NCC(=O)NCCCc2ccccc2)cc1[N+](=O)[O-],-3.8,13.6,-4.5,1.6,-13.7,3.0,6213
CCC(CC)c1nc(NCCC(=O)O)c2ccccc2n1,0.0,3.2,1.1,4.2,-9.0,-6.7,4296
CN(C)c1nnnn1-c1ccc(OC(F)(F)F)cc1,12.5,3.6,8.3,2.2,-18.8,1.6,2127
O=S1(=O)CC2N=C(N(Cc3ccc(F)cc3Cl)c3ccccc3F)SC2C1 (stereo unspecified),-3.5,-0.3,-6.2,5.3,-20.7,3.8,2366

# 4 entries out of the list, sorted by formula weight, smallest number first:
SMILES,Mtb hypoxia rep,Mtb hypoxia rep growth,BJeLR viability,RN4220 kill,PrP 5UTR inh,Sa ugtP lethal,Bead autofluor
O=C(NCCN1CCCCC1)c1ccc(/C=N/O)nc1,x,x,-18.4,x,-9.1,x,3961
O=C(Nc1cc2c3c(c1)CC(=O)N3CCC2)c1ccc(F)cc1,-1.2,2.4,5.1,-1.3,-20.2,-2.5,x
CCCCC(c1nnnn1Cc1ccco1)N1CCN(C(=O)c2ccco2)CC1 (stereo unspecified),2.1,10.5,-6.2,-1.6,-18.9,-1.9,4483
COc1ccc(Cc2nnc(NC(=O)c3c(-c4ccccc4)noc3C)s2)cc1,-6.2,4.3,5.8,10.1,-29.7,-0.4,2922

# (listing goes on)
SMILES,Mtb hypoxia rep,Mtb hypoxia rep growth,BJeLR viability,RN4220 kill,PrP 5UTR inh,Sa ugtP lethal,Bead autofluor
CCC(=O)c1ccc(OCC(=O)Nc2ccc(S(=O)(=O)Nc3cc(C)nc(C)n3)cc2)cc1,3.9,15.8,x,1.0,-9.9,8.1,3833
O=C(NN=C/C(Cl)=C\c1ccccc1)c1cnccn1,-4.9,1.3,x,-1.3,x,-5.6,x
CCOc1ccc(OCC(=O)N2CCOCC2)cc1,x,x,-10.8,1.2,-22.3,-5.0,4536
COC(=O)c1[nH]c(C)c(/C(O)=C2\C(=O)C(=O)N(CCN3CCOCC3)C2c2ccc(C)o2)c1C (stereo unspecified),-5.9,-8.3,-4.8,-0.6,-25.3,6.1,3977
CCOC(=O)C1=C(C)NC(=O)NC1c1ccc(N2CCC(c3ccccc3)=N2)cc1 (stereo unspecified),12.2,4.1,2.4,0.2,-33.7,-2.0,6204
CC1(C)Cc2ccccc2-c2c1c(=O)n(Cc1ccccc1)c1nnnn21,7.8,14.1,-8.6,0.8,-11.3,5.4,9968
COc1ccccc1N1CCN(c2cc(=O)n(-c3ccccc3Cl)c(=O)[nH]2)CC1,0.8,9.6,1.1,6.2,-22.4,-3.1,21673*
CCOC(=O)/C(=C/c1ccc(OC(F)F)cc1)C1=Nn2c(nnc2-c2ccc(Cl)cc2)SC1,11.4,6.6,x,17.6,-20.2,0.6,2911
CS(=O)(=O)N(Cc1ccc(C(=O)NN=C2CCCCCC2)cc1)c1ccccc1,6.7,7.4,-5.1,5.7,-39.2,-0.6,6702
CNc1c(NC(=O)COc2ccc(Cl)cc2)c(=O)oc2ccccc12,-7.1,-3.6,-6.4,-1.2,-11.9,2.8,5334
Cc1ccc(NCc2nnc(SCC(=O)c3ccccc3)o2)c(C)c1,5.3,16.5,-6.7,2.3,3.3,-2.6,4364
COc1ccc(CCN2C(=NC(=O)CCC(=O)O)SC3CS(=O)(=O)CC32)cc1OC (stereo unspecified),4.9,-0.1,-6.3,2.0,-5.8,5.1,6291
CCOC(=O)c1[nH]c(COC(=O)CCOc2ccccc2OC)c(C(=O)OCC)c1C,7.1,13.9,-4.3,3.5,-6.5,-12.7,23144*
CCOC(=O)C1CCCN(CC(=O)c2c[nH]c3ccc(C)cc23)C1 (stereo unspecified),8.8,7.8,5.0,1.9,x,0.9,x
COC(=O)c1ccc(NC(=O)C(=O)N2CCN(C(=S)Nc3ccc(C)cc3)CC2)cc1,6.0,8.0,5.9,5.9,-15.5,-5.4,2461
CC(C)Cc1nnc(NS(=O)(=O)c2ccc([N+](=O)[O-])cc2)s1,1.2,-0.1,-5.4,7.0,-8.7,11.8,3966
Cc1nn(S(=O)(=O)c2ccccc2)c(C)c1S(=O)(=O)N1CCOCC1,x,x,-5.2,x,-9.1,x,4844
O=C(NCCC(=O)N1CCN(S(=O)(=O)c2ccccc2)CC1)c1ccc(Br)cc1,-7.0,1.5,-8.3,1.6,-10.3,-2.5,6611
Cn1cnc(S(=O)(=O)Nc2cc(-c3ccc(Cl)cc3)nn2C)c1,0.0,-7.9,-12.2,4.5,x,13.2,4106
CCC(=O)N1CCc2cc(S(=O)(=O)CCC(=O)O)ccc21,x,x,-3.4,-1.4,-5.3,-0.3,2735
CC(C)(C)C(=O)CSc1nccc(=O)[nH]1,9.1,4.1,-8.5,4.5,-20.4,10.1,8546
CN(C)C1=NP(N(C)C)(N(C)C)=NC(c2ccccc2)=N1,x,x,-4.3,1.0,0.7,3.5,2834
CCOc1ccc(S(=O)(=O)Nc2ccc(C(=O)N/N=C/c3c(C)nn(-c4ccccc4)c3N3CCCC3)cc2)cc1,x,x,-1.7,x,-17.4,x,2478
NNc1nnc2c3cc(F)ccc3n(Cc3ccccc3)c2n1,-5.7,3.0,0.1,9.6,-5.2,-7.1,3648
Cc1cccc(C2c3[nH]c4ccccc4c3CCN2C(=O)c2cc(C(C)C)nc(N)n2)n1 (stereo unspecified),-12.3,3.6,0.0,-1.2,-20.6,-4.8,2175
C[C@H](CCC(=O)O)[C@H]1CC[C@H]2[C@@H]3CC[C@@H]4C[C@H](O)CC[C@]4(C)[C@H]3CC[C@]12C,x,x,x,12.8,-11.0,25.0,5427
CC1CCCCN1CCNC(=O)C1CCN(S(=O)(=O)N2CCCCC2)CC1 (stereo unspecified),-2.9,-27.1,16.7,0.9,-19.9,-3.0,11150
Cc1cc2c(OCC(O)CN3CCCC3)cccc2[nH]1 (stereo unspecified),20.1,0.2,2.7,3.9,-4.8,7.4,4313
Cc1ccc2c(c1)C(=O)CCCCC(=O)N2,2.1,-1.7,18.7,13.0,-3.3,5.1,5946
CC1=CC(C)(C)N(S(=O)(=O)c2ccc(C)cc2)c2cc(C)ccc21,0.3,6.5,54.9*,-0.7,-45.4,58.3,10759
CC(NS(=O)(=O)c1ccc(Cl)c(Cl)c1)C(=O)Nc1cccnc1 (stereo unspecified),10.5,5.3,x,0.4,-12.3,3.9,4896
O=C(CCc1ccccc1)n1nc(-c2ccccc2)nc1NCc1ccco1,7.5,7.7,-2.8,-2.3,-16.2,52.2,23164*
C/C(=N\NC(=O)CNc1cccc(Cl)c1C)C1CC1,x,x,-10.7,x,-25.7,x,4233
CC1CCC(NC(=O)Cn2c(=O)oc3ccccc32)CC1 (stereo unspecified),-5.7,-6.3,-3.7,2.8,-18.5,7.5,6041
O=C(N/N=C/c1ccc(Br)o1)c1cccnc1,x,x,-7.7,x,-12.7,x,2455
CC(=NOCc1cccc(C(=O)O)c1)c1ccc(Cl)cc1,5.0,8.0,x,12.0,x,-5.0,x
O=C1CSC(c2ccccn2)N1Cc1cn2ccccc2n1 (stereo unspecified),x,x,x,-1.2,-17.3,11.3,2818
CN(C)CCCN(C(=O)c1cc(-c2cccs2)nc2ccccc12)c1nc2ccc(F)cc2s1,17.5,20.9,-0.1,14.8,-9.0,-49.6,5913
OCCC1CN(Cc2cccc3c2OCO3)CCN1Cc1ccccc1 (stereo unspecified),8.1,4.4,5.3,4.0,-8.2,11.3,2303
CS(=O)(=O)c1ccc2nc(NC(=O)c3ccc(N4CCCC4=O)cc3)sc2c1,0.0,1.6,-3.7,1.2,-13.7,5.2,4431
O=C(N/N=C/c1ccc([N+](=O)[O-])s1)c1cccnc1,x,x,0.0,x,-1.1,x,2565
CCOc1ccc(NC(=O)CN(Cc2ccccc2)S(C)(=O)=O)cc1,x,x,1.4,3.2,-2.2,7.5,4138
O=c1[nH]c(=O)n(Cc2ccco2)c(O)c1/C=N/N1CCCCC1,3.4,6.7,-15.1,3.1,-22.3,3.1,2904
Cc1ccc(CNC(=S)N2CCOCC2)cc1,7.4,5.0,-0.3,2.3,-64.2,4.4,3803
COc1ccc(C2CC(=O)C=C(c3ccc(Oc4ccccc4)cc3)C2)cc1OC (stereo unspecified),15.2,12.1,x,2.4,x,16.6,x
Cc1ccc(-c2[nH]c(=S)[nH]c(=O)c2C#N)cc1,12.5,0.7,-3.6,3.3,-17.6,5.2,3156
O=C(NCCc1ccccc1)C1CCN(S(=O)(=O)N2CCC3(CC2)OCCO3)CC1,16.5,9.3,4.7,3.2,-14.7,-2.0,9051
CCOc1ccc(NC(=O)CN(C)C(=O)c2cc(S(=O)(=O)N(C)C)ccc2N2CCCC2)cc1OCC,x,x,1.4,x,-18.7,x,u
COc1ccc(CNCC(O)(c2ccccc2)c2ccc(F)cc2)cc1 (stereo unspecified),-9.7,-3.5,22.4,-0.1,-9.0,-2.7,4049
CCCCCN(C(=O)CCC(=O)OCC(=O)c1ccc(F)c(F)c1)c1c(N)n(CCCC)c(=O)[nH]c1=O,0.3,-6.4,-4.7,0.7,-16.1,5.4,u
Cc1cccc(CSc2nnc(C)c(=O)n2N)c1,11.6,11.1,-4.6,5.5,-3.3,11.6,7092
Cc1ccc(NC(=S)NC(NC(=O)c2ccccc2)C(Cl)(Cl)Cl)c(C)c1 (stereo unspecified),2.5,3.3,17.0,-4.3,-4.3,-9.3,9902
COc1ccc(CCC(=O)NN=Cc2cccs2)cc1,-2.1,5.9,x,7.4,x,12.6,x
Cc1nn(CC(=O)Nc2cccc(C(F)(F)F)c2)c(=O)c2cccn12,6.2,3.4,-1.7,4.2,-50.0,0.3,7193
O=C(O)C1CCCCC1C(=O)Nc1ccc2c(c1)OCO2 (stereo unspecified),13.2,-1.3,4.8,4.6,-25.6,-2.0,3823

# Quoted from the listing:
# Mtb hypoxia rep, O=c1[nH]c(=O)n(Cc2ccco2)c(O)c1/C=N/N1CCCCC1 → 3.4
# Mtb hypoxia rep growth, COc1ccc(CNCC(O)(c2ccccc2)c2ccc(F)cc2)cc1 (stereo unspecified) → -3.5
